Compound activity as filed in PubChem BioAssay.
Rango release inh: qHTS Assay for Inhibitors of RanGTP induced Rango (Ran-regulated importin-beta cargo) - Importin beta complex dissociation; Biochemical FRET Rango-importin beta, RanGTP-induced dissociation; Potency, µM (series often up to 46.1 µM), for inactives: at the top dose activity change, negative = inhibition; 340,000 tested, 0.071% active; active means falling FRET ratio curve, often poorly fitted, with flat reads before Ran was added; inconclusive means other falling curves, or compound fluorescence or quenching; inactive means flat or rising ratio curve;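 further: potency means the concentration at half of the fitted maximal effect; % of control where 0% means no effect; nearly all actives have a fitted effect of over 45% in size; -100% = wells without RanGTP and RCC1; the record marks most hits as doubtful in a second field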
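Rango/importin beta premix (0.1/0.25 uM final), PBS + 1 mM DTT + 0.02% Tween-20 + 0.1% BSA; cpd 5 min RT; FRET pre-read; + RanGTP-RCC1 (0.6 uM Ran, 2 mM GTP, 0.2 uM RCC1); 45 min RT; FRET post-read, ex 430, em 486/530 nm.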
miR-21 FLuc: qHTS Assay for Modulators of miRNAs and/orActivators of miR-21; HeLa miR-21 FLuc reporter, luciferase, 48 h; 340,000 tested, under 10 active; Potency, µM (top dose mostly 38.3 µM), for inactives: at the highest dose reporter change, positive = more light; active = well fitted rising curve with a large enough effect; inconclusive = small, poorly fitted or top-dose-only effect; inactive = no such curve, though single readings can be large or run the other way;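 further: % of control where 0% means no effect; miR-21 action dims this reporter so a rising signal means less miR-21 action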
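HeLa miR-21-FLuc reporter line, endogenous miR-21; 2000 cells/well in DMEM/10% FBS; compound titration up to ~40uM final, 48 h, 37 degree Celsius; luciferase detection reagent, 15 min lysis, CCD luminescence.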
Rango complex inh: qHTS Assay for Inhibitors of Rango (Ran-regulated importin-beta cargo) - Importin beta complex formation; Importin subunit beta-1 (Homo sapiens), Q14974; Rango CFP/YFP FRET sensor + importin beta, 45 min; Potency, µM (doses to about 92.2 µM), without a hit: at the highest dose inhibition of complex formation; 340,000 tested, 0.031% active; active = rising FRET ratio curve, often small or poorly fitted; inconclusive = mostly compound fluorescence or quenching in the first reads; inactive = flat curves in all reads;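 further: potency means the concentration at half of the fitted maximal effect; 0% = DMSO wells and 100% = buffer wells lacking importin beta; nearly all actives have a fitted effect of over 15% in size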
Target sequence (Q14974 whole entry, looked up): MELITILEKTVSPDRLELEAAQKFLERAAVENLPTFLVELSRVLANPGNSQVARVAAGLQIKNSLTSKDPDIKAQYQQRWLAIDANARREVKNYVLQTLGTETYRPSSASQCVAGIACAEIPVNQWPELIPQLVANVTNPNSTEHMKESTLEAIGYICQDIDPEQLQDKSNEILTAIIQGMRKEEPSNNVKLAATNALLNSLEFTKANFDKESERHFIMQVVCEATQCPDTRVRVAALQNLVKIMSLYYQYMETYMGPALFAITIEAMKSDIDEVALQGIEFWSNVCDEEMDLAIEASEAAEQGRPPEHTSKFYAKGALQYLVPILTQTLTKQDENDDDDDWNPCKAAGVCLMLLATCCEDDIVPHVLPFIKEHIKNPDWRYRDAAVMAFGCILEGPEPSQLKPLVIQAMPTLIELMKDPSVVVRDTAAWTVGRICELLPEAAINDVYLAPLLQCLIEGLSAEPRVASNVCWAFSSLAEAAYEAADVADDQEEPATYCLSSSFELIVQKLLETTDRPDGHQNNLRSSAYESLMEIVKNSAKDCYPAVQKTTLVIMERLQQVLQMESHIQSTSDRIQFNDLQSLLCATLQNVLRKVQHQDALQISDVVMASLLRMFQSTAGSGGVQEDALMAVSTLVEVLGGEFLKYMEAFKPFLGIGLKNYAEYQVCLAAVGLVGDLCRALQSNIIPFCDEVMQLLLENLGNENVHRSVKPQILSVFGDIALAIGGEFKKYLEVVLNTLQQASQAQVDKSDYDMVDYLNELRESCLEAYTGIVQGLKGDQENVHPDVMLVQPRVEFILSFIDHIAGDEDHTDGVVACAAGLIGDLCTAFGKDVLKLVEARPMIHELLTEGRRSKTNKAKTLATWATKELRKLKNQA
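FRET biosensor Rango (snurportin 1 IBB between N-terminal EYFP and C-terminal Cerulean), 50 nM in PBS/1 mM DTT/0.02% Tween-20/0.1% BSA, preincubated 5 min RT with compound; 0.125 microM importin beta added, 45 min RT, CFP/YFP FRET ratio read.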
GLA inh pH 4.5: qHTS Assay for Inhibitors of Human alpha-Galactosidase at pH 4.5; activity change, negative = inhibition, % at 105 µM; purified enzyme, 4-MU-alpha-Gal fluorescence, pH 4.5; 230,000 tested, under 10 active; inconclusive = small, poorly fitted or top-dose-only inhibition, or a rising curve; inactive = flat fitted curve, though single readings scatter; no compound was filed as active;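 further: 0% = full activity with enzyme and -100% = basal without enzyme; dose as in the result columns while the protocol names 77 µM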
* hit, by the source's call; ? = inconclusive; / = not tested or not shown. Not all compounds are listed; rates above refer to the full screens.

Compound | Rango release inh | miR-21 FLuc | Rango complex inh | GLA inh pH 4.5
O=C(Nc1ccccc1O)c1ccc(Cl)cc1 | -6% | -56% | 2.7% | 0
CCOC(=O)CSc1nc(C)cc(C)c1C#N | -11% | -8% | 2.6% | 5
CCOC(=O)Cc1csc(N/C(=N/S(=O)(=O)c2ccc(F)cc2F)c2ccccc2)n1 | 6% | -2% | -5.7% | 2
CCN(CC(=O)NC(C)C)C(=O)CCNC(=O)c1ccc(Cl)cc1 | -6% | -7% | 2.5% | -12
CC1CCN(C(=O)CSc2nnc3ccc(-c4cccnc4)nn23)CC1 | 1% | / | 1.5% | /
Cc1nn(CC(=O)N2CCN(C34CC5CC(CC(C5)C3)C4)CC2)c(C)c1[N+](=O)[O-] | -6% | 1% | -0.2% | /
C[C@H](CO)N1C[C@H](C)[C@@H](CN(C)Cc2ccc(Cl)c(Cl)c2)Oc2c(NC(=O)c3ccncc3)cccc2C1=O | 10% | / | -3.4% | /
Cc1nnc(NC(=O)C2CCCC2)s1 | -1% | 0% | ? | /
O=C(COC(=O)c1cncc(Br)c1)NCc1ccc(F)cc1 | -13% | -2% | -0.3% | 5
O=c1cc(Cl)[nH]n(-c2ccccc2)c1=O | -6% | 0% | 4.4% | /
O=c1c(-c2ccc3c(c2)OCCO3)coc2cc(OC3OC(CO)C(O)C(O)C3O)ccc12 (stereo not given) | 7% | -18% | -1.5% | -10
CC(C)CNC(=O)CN1c2cccc3cccc(c23)S1(=O)=O | -6% | -13% | -0.4% | /
Cc1ccc(C(=O)N[C@H](C(=O)Nc2sccc2C(N)=O)C(C)C)cc1 | -5% | -13% | -2.4% | /
CC1OC(C)(C)OC1C1CNc2nc(NC(=O)C(C)(C)C)[nH]c(=O)c2N1C(=O)c1cccnc1 (stereo not given) | 24% | 1% | -3.8% | -4
O=c1[nH]c(CSc2cccc[n+]2[O-])nc2ccccc12 | -3% | 0% | -1.0% | 1
Cc1onc(-c2ccccc2)c1C(=O)N/N=C/c1cc2c(cc1Cl)OCO2 | -3% | -12% | 0.0% | 4
COc1ccc(-c2cc(C(F)F)n3ncc(C(=O)NCCCN4CCCC4=O)c3n2)cc1 | -6% | -8% | 0.1% | 20
CN/N=C/c1ccc(C#N)cc1 | -11% | 0% | 5.2% | -1
O=C(Oc1ccccc1Cl)c1ccccc1 | -8% | / | -0.5% | /
CCN(CC)C(=O)C(Oc1ccc(C)nc1[N+](=O)[O-])c1ccccc1 (stereo not given) | -1% | 2% | -2.8% | /
CCOc1ccc2sc(NS(=O)(=O)c3ccc(OC)c(OC)c3)nc2c1 | -2% | -8% | 4.1% | 0
COc1ccc(NC(=O)c2ccc(-n3nc(C)cc3C)cc2)cc1OC | -4% | -30% | 0.8% | -3
Brc1ccc(-c2csc(Nc3nc(-c4ccc(Br)cc4)cs3)n2)cc1 | 8% | -34% | -4.2% | 3
O=C(Nc1ccnc(-c2ccncc2)n1)c1ccc(Cl)cc1 | 20% | 1% | -1.1% | -4
O=C(C[C@@H]1C/C=C\C[C@H](Cc2ccc(F)cc2)C(=O)OC[C@H]2CCCN2C1=O)N[C@H](CO)Cc1ccccc1 | -10% | / | 3.6% | /
Cc1cnc(C(=O)OCC(=O)NCc2ccccc2)cn1 | 17% | 1% | 2.6% | -5
C[C@@H]1CN([C@H](C)CO)C(=O)c2cc(NS(=O)(=O)c3cn(C)cn3)ccc2O[C@H]1CN(C)C(=O)Nc1ccccc1 | 6% | / | -0.2% | /
CCN(c1ccccc1)S(=O)(=O)c1ccc(N)cc1 | 26% | 0% | -3.2% | -6
Cc1ccccc1Cn1c(-c2ccc(=O)[nH]c2)nc2ccccc21 | -1% | 11% | 0.6% | /
CC(NS(=O)(=O)c1ccc(N)cc1)C1CC2CCC1C2 (stereo not given) | 15% | 0% | 4.0% | /
COCCNC(=S)N(CCc1c(C)[nH]c2ccc(F)cc12)Cc1ccc(C)cc1 | -1% | 14% | ? | /
Cc1cc(C)c(S(=O)(=O)/N=C2\C=C(NS(=O)(=O)c3ccccc3)C(=O)c3ccccc32)c(C)c1 | -6% | 1% | -4.7% | /
CC(Oc1ccc(F)cc1)C(=O)Nc1ccccc1N1CCCCC1 (stereo not given) | -10% | 5% | -1.0% | /
CCOC(=O)C1CCCN(C(=O)COc2ccc(C(=O)c3ccccc3)cc2)C1 (stereo not given) | 12% | / | 3.1% | /
Cc1cc(C)c(C#N)c(OCC(=O)c2ccccc2)n1 | 8% | -22% | -3.7% | 3
Cc1cccc2cc(CN(Cc3nnnn3Cc3ccco3)C3CCCC3)c3nnnn3c12 | -10% | 1% | -3.8% | -2
Cc1c(C(=O)Nc2nnc(C3CC3)s2)oc2ccccc12 | 0% | / | 12% | /
CN(Cc1ccccc1)S(=O)(=O)c1ccc2c(c1)n(C)c(=O)n2C | 20% | -4% | 7.0% | 1
CC(C)CCn1c(NCCc2ccccc2)nc2c1c(=O)n(C)c(=O)n2C | 13% | ? | ? | -13
Cc1cccc(C)c1NC(=O)COC(=O)Cc1ccsc1 | 2% | -8% | 2.5% | 2
CCCC(C(=O)NC1CCCCC1)N(CC1CCCO1)C(=O)CNS(=O)(=O)c1ccc(F)cc1 (stereo not given) | 0% | -8% | 2.2% | -4
CCN(CC)C(=O)C1=C(C)NC(=O)NC1c1ccccc1F (stereo not given) | / | -3% | / | -9
COc1ccc(/C=N/N=C/c2ccc(OC)c(OC)c2)cc1OC | -9% | -1% | -1.0% | 2
COc1ccccc1OCc1ccc(C(=O)N2CCN3CCCC3C2)cc1 (stereo not given) | 1% | -9% | -1.4% | -2
COc1cccc(/C=N\NC(=O)c2ccc(C)nc2)c1 | -2% | -17% | -0.3% | /
CCC1(c2ccc(F)cc2)NC(=O)N(CC(=O)Nc2cccc(S(=O)(=O)N3CCCC3)c2)C1=O (stereo not given) | -2% | / | -1.0% | /
Cc1ccc(S(=O)(=O)CCC(=O)N2CCN(c3ccccc3O)CC2)cc1 | -6% | / | -1.0% | /
c1ccc(CN2CCN(Cc3c[nH]c4ccccc34)CC2)cc1 | -6% | -1% | 0.6% | /
COC(=O)C1=C(C(=O)OC)[C@]2([C@H]3CCCCN[C@@H](Cc4ccccc4)C(=O)N3Cc3ccccc3)C=C[C@H]1O2 | 0% | / | 3.0% | /
CC(C)Cn1c(SCC(=O)c2c(N)n(C)c(=O)n(C)c2=O)nc2ccccc21 | 1% | -2% | -2.4% | -23
O=C(Nc1cccn(Cc2ccccc2Cl)c1=O)NC1CCCCC1 | -8% | -12% | 2.0% | -12
CC(=O)Nc1ccc(NC(=O)COC(=O)[C@@H]2CCCN2C(=O)c2cccs2)cc1 | -9% | / | 1.6% | /
CCc1c(C)sc(NC(=O)c2ccoc2C)c1C(N)=O | -6% | -29% | -1.1% | /
COc1ccc(Cl)cc1S(=O)(=O)NCc1cccnc1 | 18% | -1% | 4.8% | -4
CCCN(CC(=O)Nc1ccccc1OC)C(=O)c1ccccn1 | 2% | / | 2.1% | /
COc1ccc(N2CCN(C(=O)CCS(=O)(=O)c3cccc4nsnc34)CC2)cc1 | 3% | -3% | 2.3% | 3
Cc1cccc(OCCCC(=O)Nc2ccc(Br)cc2)c1 | 1% | 0% | -0.1% | -2
CN(CCCCCCCCC(=O)/C=N/O)Cc1ccccc1 | 3% | 10% | 0.1% | -4
CCO[C@H]1OC(C(=O)N2CCN(C)CC2)=C[C@@H](C(C)(C)C)[C@@H]1CCCO | 4% | -1% | -1.8% | 1
O=C(CCCn1c(=S)[nH]c2cc3c(cc2c1=O)OCO3)NCc1cccc(Cl)c1 | 7% | 2% | 2.5% | /

Following part.
Compound | Rango release inh | miR-21 FLuc | Rango complex inh | GLA inh pH 4.5
N#CC1=C(N)SC(N)=C(C#N)C1c1ccc(C(F)(F)F)cc1 | / | 3% | / | -2
CCOC(=O)NC(=O)COC(=O)c1cccc2ccccc12 | -1% | 5% | -4.3% | 1
CC(=O)c1cccc(Nc2cc(C)nc3c(C)cccc23)c1 | -13% | 4% | 1.1% | -5
CC12CCC(C(=O)N/N=C/c3ccc(O)cc3)(OC1=O)C2(C)C (stereo not given) | 16% | -10% | 2.2% | 1
CCCCc1nnc(NC(=O)COc2ccc3c(C)cc(=O)oc3c2)s1 | / | 8% | / | -1
O=C(NCCNC(=O)C(c1ccccc1)c1ccccc1)c1ccco1 | -9% | -8% | 0.3% | -6
CCOc1ccc(CCNC(=O)CSc2nc3ncc(Cl)cc3[nH]2)cc1OCC | 6% | 0% | -3.0% | /
Cc1ccc(C2=N/C(=C\c3c(C)nn(-c4ccccc4)c3N3CCCC3)C(=O)O2)cc1 | -10% | 0% | 0.1% | -11
CCOc1ccc(CCNC(=O)COC(=O)COc2ccc(C(C)=O)cc2)cc1OCC | 10% | / | 0.9% | /
CCC(C)NC(=O)c1cccc(C)c1 (stereo not given) | 10% | -3% | -1.1% | 2
Cn1c(=O)c2c(nc(Cl)n2Cc2ccncc2)n(C)c1=O | -9% | -4% | 2.3% | 4
Cc1ccccc1S(=O)(=O)Oc1cccc2c(O)cccc12 | -8% | -18% | 0.0% | /
Cc1ccc(OCCNC(=O)c2cc(C(=O)NCCOc3ccc(C)cc3)cc([N+](=O)[O-])c2)cc1 | -5% | 21% | 1.3% | -8
C=C(C)Cn1c(COc2ccccc2)nnc1SCC(=O)O | -9% | -6% | 2.4% | 0
COc1ccc(/C=C2\CN(Cc3ccccc3)C/C(=C\c3ccc(OC)cc3)C2=O)cc1 | -24% | -8% | -1.3% | -7
Cc1ccc(Oc2ccc(-c3nnc(-c4ccccc4)o3)cc2[N+](=O)[O-])cc1C | / | -5% | / | -7
Cc1cc(C)c2nc3nc(C)c(C)cc3c(N)c2c1 | ? | 27% | ? | 14
CCCCCC(=O)NC(=S)NC1C2CC3CC(C2)CC1C3 (stereo not given) | -3% | -5% | 2.6% | 4
Cc1ccccc1Nc1ncccc1C(=O)N1CCOCC1 | 10% | 1% | -4.7% | 9
CCSc1ccccc1C(=O)NCCCn1ccnc1 | 1% | -1% | -4.2% | 12
O=C(c1cc(C(=O)N2CCCC2)cc([N+](=O)[O-])c1)N1CCCC1 | -10% | 0% | -0.2% | /
N#Cc1cccc(S(=O)(=O)NCc2nnc3ccccn23)c1 | 0% | / | 0.0% | /
CCCCCCC(CC(=O)NCc1cccnc1)CC(=O)NCc1cccnc1 | -9% | -2% | 0.9% | /
CCOC(=O)N1CCC(Nc2cc(C)nc3c(-c4ccccc4OC)c(C)nn23)CC1 | 15% | 16% | ? | 3
COc1ccc(C2=NN(C(=O)CSc3ncccn3)C(c3ccc(OC)cc3)C2)cc1 (stereo not given) | 10% | -3% | ? | -8
CCNC(=O)COC(=O)c1cc(=O)[nH]c2ccccc12 | 0% | 5% | -1.1% | 5
O=C(c1nc2ccc(Cl)cn2c1CNCC[C@@H]1C[C@@H]2C=C[C@H]1C2)N1CCCCCCC1 | -12% | -6% | -3.1% | 5
